Screens as filed in PubChem BioAssay.
BasE inh = BasE siderophore enzyme inhibitors, primary screen, biochemical, Acinetobacter baumannii ATCC 17978, fluorescence polarization; AID 485350, 2010; 0.1% of 84,000 active; purified BasE, fluorescence polarization binding displacement; inhibition, % (concentration not given with the values);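 active means both replicates above 25% with normal brightness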;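 further: 0% = negative plate control signal and 100% = positive plate control signal; stock transfer was 100 nL into about 30 µL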
LANA-nucl inh = inhibitors of KSHV LANA-nucleosome binding, primary screen, biochemical, fluorescence polarization, FITC-LANA1-23, chicken nucleosomes; FITC-LANA1-23 / chicken nucleosome fluorescence polarization; stronger effect = lower value; 0.3% of 51,000 active; AID 720717, 2013; z-score (test concentration not listed);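 active means both repeat wells score below -2 in polarization z-score versus plate sample wells, excluding overly bright wells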;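 further: 100 nL library stock added to about 30 µL; numbers are from one replicate; some results filed as inactive read as strong as hits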
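Test system: purified chicken nucleosomes with FITC-labelled LANA N-terminal peptide (1-23); Input: 240 nM purified chicken nucleosomes (480 nM peptide binding sites), final; Medium: TEN-BT buffer, pH 7.5; Timing: 10–45 min, room temperature; Technique: fluorescence polarization, 480 nm excitation, 535 nm parallel and perpendicular emission; Replication: duplicates.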
* marks the source's active call; other numbers are inactive results; & = joins results of further samples.

Screening O=C(CSC1=NCCS1)OCN1C(=O)c2ccccc2C1=O returned BasE inh -2.1 and LANA-nucl inh 1.7.
For Cc1ccc(NC(=O)CN(C)C(=O)Cn2c(=O)cnc3ccccc32)cc1 the results were BasE inh 1.9.
For Nc1csc2nc(=O)cnn12 the results were BasE inh 5.5 and LANA-nucl inh -0.88.
Screening O=S(=O)(NCCOc1nnnn1-c1ccccc1)c1ccc(-n2cnnn2)cc1 returned BasE inh -1.9 and LANA-nucl inh -0.92.
For Cc1cc(=S)n2c([nH]c3ccccc32)c1C#N the results were BasE inh -0.3 and LANA-nucl inh -0.82.
For O=C1COc2ccc(C(=O)COC(=O)[C@@H]3CCCN3S(=O)(=O)c3ccc(Cl)cc3)cc2N1 the results were BasE inh -2.1.
Screening COC(=O)c1c(C)[nH]c(C(=O)C(C)n2nnc(-c3ccc(C)cc3)n2)c1C (stereo not given) returned BasE inh 0.3.
N#Cc1ccc(OCC(=O)Nc2cc(-c3ccccc3)nn2-c2ccccc2)cc1 was read as BasE inh 0.4.
`O=C(NCc1cccnc1)c1cn(C2CC2)c2cc(N3CCN(C(=O)c4cccc(Cl)c4)CC3)c(F)cc2c1=O` gave BasE inh 3.2 and LANA-nucl inh 0.051.
O=C1c2ccccc2C(=O)N1Cc1ccccn1 was read as BasE inh 4.4 and LANA-nucl inh -0.1.
CCc1ccc(NC(=O)CC(NCc2ccccc2)C(=O)O)cc1 (stereo not given) was read as BasE inh 0.9.
Cc1ccc(NC(=O)CN(C)C(=O)Cn2ncc(Cl)c(Cl)c2=O)cc1 was read as BasE inh 1.0.
For CC(C)(c1ccccc1)c1cc(CN2CCOCC2)c(O)c(CN2CCOCC2)c1 the results were BasE inh 1.5.
CCc1ccc(OCc2n[nH]c(=S)n2CC(C)C)cc1 was read as BasE inh 0.9.
`CCNC(=S)N1CCN(C(=O)OCC)CC1` gave BasE inh -0.4 and LANA-nucl inh -0.1.
Screening Cc1oc(C(C)(C)C)cc1C(=O)Nc1ccc(C(C)C)cc1 returned BasE inh 0.3.
For CCC(C)NS(=O)(=O)c1ccc(N)cc1 (stereo not given) the results were BasE inh 0.6 and LANA-nucl inh -1.2.
`COC(=O)c1cc(N2CC(C)(C)C2=O)cc(N2CC(C)(C)C2=O)c1` gave LANA-nucl inh -0.64.
`O=C(O)Cn1c2ccccc2c2n[nH]c(=S)nc21` gave BasE inh 2.8 and LANA-nucl inh -0.24.
Screening COc1ccc(C(=S)N2CCNCC2)cc1 returned BasE inh -1.1 and LANA-nucl inh 2.5.
O=C(Cc1ccccc1F)NCC1COc2ccccc2O1 (stereo not given) was read as BasE inh 1.2.
Screening Cc1nnc(SCc2ccc3c(c2)OCO3)s1 returned BasE inh 4.6 and LANA-nucl inh -0.21.
CCOc1ccc2c(c1)n(CO)c(=S)n2CO was read as BasE inh -0.3.
`CC(=O)N1c2ccccc2C(=O)C1N(Cc1cccs1)C1CCCC1` (stereo not given) gave BasE inh -0.2.
For CCCCCn1c(=N)n(CCOc2ccccc2)c2ccccc21 the results were BasE inh -4.6 and LANA-nucl inh -1.
`CCCN(S(=O)(=O)c1ccc(OCC)cc1)S(=O)(=O)c1cc(OC)ccc1OC` gave BasE inh 0.8.
CCC(CC)NC(=O)C(C)Nc1nc2ccccc2s1 (stereo not given) was read as BasE inh 0.3.
Screening COC(=O)Cc1[nH]n(-c2ccc(F)cc2)c(=O)c1C(C)=NCCc1cnc[nH]1 returned BasE inh -0.3 and LANA-nucl inh -1.2.
O=C(Nc1ccccc1C(=O)OCC(=O)N1CCCc2ccccc21)c1ccco1 was read as BasE inh 1.6.
Screening O=C(CNCCCN1CCOCC1)Nc1ccc(OC(F)(F)F)cc1 returned BasE inh -2.5 and LANA-nucl inh -0.5.
`COc1cccc2cc(-c3csc(C)n3)c(=O)oc12` gave BasE inh -1.2 and LANA-nucl inh 0.097.
For CC(C)NC(=S)NC(=O)c1cccs1 the results were BasE inh -5.2 and LANA-nucl inh 2.1.
For O=C(CSc1ccccc1)N1CCN(S(=O)(=O)c2cccs2)CC1 the results were BasE inh -4.3 and LANA-nucl inh 3.5.
Screening Cc1cc(=O)[nH]c(SCC(=O)NCC2CCCCC2)c1C#N returned BasE inh 0.4.
For COCCn1c(SCC(=O)NCc2ccccc2)nc2ccccc21 the results were BasE inh -2.3.
For O=C(CNC1CC1)NCc1cccs1 the results were BasE inh -1.8 and LANA-nucl inh -0.22.
CCCSc1nnc(CSc2ncccn2)n1-c1ccc(F)cc1 was read as BasE inh -0.6 and LANA-nucl inh -0.048.
O=C(O)CCCn1ccnc1 was read as BasE inh 0.1 and LANA-nucl inh 0.12.
`CCc1ccc(C(=O)CSc2nnc(-c3ccncc3)n2C2CC2)s1` gave BasE inh 1.0.
`O=C(OCN1C(=O)c2ccccc2C1=O)c1ccc2ccccc2n1` gave BasE inh -3.4.
For CC(C)CC(=O)N1CCC2(CC1)CC(=O)c1ccccc1O2 the results were BasE inh -0.7 and LANA-nucl inh -1.4.
Screening CC1CCc2cc(F)cc3c(=O)c(C(=O)O)cn1c23 (stereo not given) returned BasE inh -0.7&-0.6 and LANA-nucl inh 0.46&-0.17&-0.54.
`CC(Sc1nnnn1C)C(=O)NCC1CCCCC1` (stereo not given) gave BasE inh 1.7.
For CCOC(=O)c1ccccc1NC(=O)Cn1ccsc1=N the results were BasE inh 0.0.
Screening CCCN1CCN(C(=O)Nc2ccc(C(=O)OCC)cc2)CC1 returned BasE inh -3.7 and LANA-nucl inh 0.26.
For CCOc1nc2cccnc2n(CC(=O)Nc2ccccc2C(F)(F)F)c1=O the results were BasE inh 0.5 and LANA-nucl inh -0.44.
Screening O=C(OCc1ccc(Cl)cc1Cl)c1ccc2ccccc2n1 returned BasE inh -2.7.
For CCN(C(=O)Cn1cnc2ccccc21)c1ccccc1 the results were BasE inh 3.0 and LANA-nucl inh 0.44.
Screening C=CCn1c(CCn2c3ccccc3c3ccccc32)n[nH]c1=S returned BasE inh -0.2.
Screening C=CCn1c(=O)c2ccccc2n2c(SC3CCOC3=O)nnc12 (stereo not given) returned BasE inh -0.4.
COc1ccc(CCN(C)C(=O)c2cncc(Br)c2)cc1OC was read as BasE inh -0.9.
For CC(Sc1ccc(Br)c2cccc(C(=O)O)c12)C(=O)O (stereo not given) the results were BasE inh -0.7.
`CCOc1cc(CNCc2cccnc2)cc(Cl)c1OCC(N)=O` gave BasE inh 4.2 and LANA-nucl inh -1.4.
Screening O=C(CCn1nc(-c2ccc(Cl)cc2)ccc1=O)NC1CCCCC1 returned BasE inh -1.6 and LANA-nucl inh 0.88.
Screening C=CCNC(=S)NNc1nc(NCC)nc(NCC)n1 returned BasE inh -0.3 and LANA-nucl inh 1.8.
`Cc1cc(C)n(CCCNC(=O)/C=C/c2c(Cl)nc3ccccn23)n1` gave BasE inh -1.3.
Screening COc1ccccc1NC(=O)Nc1cc(C(C)(C)C)nn1C returned BasE inh -1.2 and LANA-nucl inh -0.031.
For Clc1ccc(-c2ncnn2-c2ccc(Br)cc2)cc1 the results were BasE inh 2.8.
`OCCN1CN(Cc2cccc(Cl)c2)Cn2c1nc1ccccc12` gave BasE inh -1.1.
`CNC(=O)c1cc(C#N)c(SC)s1` gave BasE inh -1.9.

Next part; the last two above are carried over.
`OCCN1CN(Cc2cccc(Cl)c2)Cn2c1nc1ccccc12` gave BasE inh -1.1.
`CNC(=O)c1cc(C#N)c(SC)s1` gave BasE inh -1.9.
CN(C)C(CNC(=O)c1ccc(S(=O)(=O)NCc2ccco2)cc1)c1ccccc1 (stereo not given) was read as BasE inh -0.6.
For O=C(Oc1ccc2c(c1)oc(=O)c1ccccc12)c1ccco1 the results were BasE inh 2.8 and LANA-nucl inh 0.15.
CCOC(=O)c1ccc(NC(=O)c2cc(C)nn2-c2ccccc2)cc1 was read as BasE inh -1.7 and LANA-nucl inh 0.19.
For O=C(CNCC1(N2CCOCC2)CCCCC1)Nc1ccc(Cl)cc1 the results were BasE inh -2.6.
For Cc1noc(/C=C/N2CCOCC2)c1S(=O)(=O)N(C)CCc1ccc(Cl)cc1 the results were BasE inh 3.5 and LANA-nucl inh -0.22.
For O=C(CSc1nnc(-c2ccc3c(c2)OCO3)o1)OCCN1C(=O)c2ccccc2C1=O the results were BasE inh 2.2.
`Cc1ccc(NCc2ccccc2)cc1` gave BasE inh -1.0.
COC(=O)c1ccc(C2NC(=O)NC(=O)N2)cc1 was read as BasE inh 1.6.
For Cc1cc(Nc2ccc(Cl)cc2)n2c(nc3ccccc32)c1C#N the results were BasE inh 0.9.
Screening Nc1nnc(SCCN2C(=O)c3ccccc3S2(=O)=O)s1 returned BasE inh -0.5 and LANA-nucl inh 2.6.
For O=C(NNc1nc2cc3c(cc2s1)OCO3)c1ccccc1 the results were BasE inh 0.6 and LANA-nucl inh 0.23.
`Cc1ccc(C=Nc2cccc3nsnc23)c(O)c1` gave BasE inh 0.7 and LANA-nucl inh -0.22.
Screening N#Cc1ccc(OCC(O)CNC23CC4CC(CC(C4)C2)C3)cc1 (stereo not given) returned BasE inh 0.6.
`CC1NC(=S)N(Cc2ccccc2)C1=O` (stereo not given) gave BasE inh 0.9.
Screening CSc1nnc2c(n1)OC(C)N(C(C)=O)c1ccccc1-2 (stereo not given) returned BasE inh 2.1.
Screening COc1ccc2ncc(C(=O)c3ccc(C)c(C)c3)c(N3CCOCC3)c2c1 returned BasE inh -1.9 and LANA-nucl inh -0.24.
O=C(Oc1ccc2ccccc2c1CN1CCOCC1)c1cc(=O)[nH]c2ccccc12 was read as BasE inh 0.7.
`Cc1ccc2nc(SCC(=O)NCc3ccco3)c(C)cc2c1` gave BasE inh 0.8 and LANA-nucl inh -0.12.
COc1ccc(OCC(O)CNC(=O)c2sccc2Cl)cc1 (stereo not given) was read as BasE inh 1.3.
`O=C(CS(=O)CC(=O)Nc1ccc2c(c1)OCCO2)Nc1ccc(Cl)cc1` (stereo not given) gave BasE inh -0.8 and LANA-nucl inh 0.36.
Cc1nc(N)sc1N=Nc1ccc(F)cc1 was read as BasE inh -2.1.
Screening N#Cc1cnn(-c2ccccc2)c1/N=C/N1CCCC1 returned BasE inh 2.5 and LANA-nucl inh 0.33.
For COc1ccc(Br)cc1CSC(=N)N the results were BasE inh -1.9 and LANA-nucl inh -0.44.
For NC(=O)NC(=O)c1nc2nonc2[nH]c1=O the results were BasE inh -3.7 and LANA-nucl inh -0.81.
Screening Cc1noc(N)c1C1(O)C(=O)N(CCC(C)C)c2ccccc21 (stereo not given) returned BasE inh 0.8.
Screening Cc1oc2cc3oc(=O)ccc3cc2c1C returned BasE inh -2.9 and LANA-nucl inh 0.98.
`CC(C)(C)NC(=O)N1CCN(c2ncccc2C(F)(F)F)CC1` gave BasE inh 0.3.
CS(=O)(=O)N(CC(=O)NCC1CCCO1)Cc1ccc(Cl)c(Cl)c1 (stereo not given) was read as BasE inh -0.9 and LANA-nucl inh -0.48.
`O=C(CSc1nnc(-c2cccs2)o1)c1ccc[nH]1` gave BasE inh 2.0.
`COc1ccc(/C=C2\SC(=O)N(c3ccc(C)cc3)C2=O)cc1` gave BasE inh 1.6.
Cc1cc(C(=O)NNc2c(Cl)cccc2Cl)no1 was read as BasE inh 0.8 and LANA-nucl inh -1.2.
For COc1ccccc1CNCc1ccccc1OC the results were BasE inh 1.3 and LANA-nucl inh -0.46.
`O=C1CCC(C(=O)Nc2ccccc2N2CCOCC2)=NN1` gave BasE inh 2.6.
O=C1Nc2c(ccc(Cl)c2Cl)C(=O)C1(F)c1ccccc1 (stereo not given) was read as BasE inh -0.2.
Screening CCCCn1c(=S)[nH]c2sc3c(c2c1=O)CCCC3 returned BasE inh 3.8.
Cc1ccc(Nc2ssc(=O)c2Cl)cc1C was read as BasE inh -9.5.
Screening CC(C)CNC(=O)Nc1ccccc1F returned BasE inh -0.2 and LANA-nucl inh 0.33.

Compounds from the list above containing an NH in an aromatic ring:
For Cc1cc(=S)n2c([nH]c3ccccc32)c1C#N the results were BasE inh -0.3 and LANA-nucl inh -0.82.
Screening COC(=O)c1c(C)[nH]c(C(=O)C(C)n2nnc(-c3ccc(C)cc3)n2)c1C (stereo not given) returned BasE inh 0.3.
CCc1ccc(OCc2n[nH]c(=S)n2CC(C)C)cc1 was read as BasE inh 0.9.
`O=C(O)Cn1c2ccccc2c2n[nH]c(=S)nc21` gave BasE inh 2.8 and LANA-nucl inh -0.24.
Screening COC(=O)Cc1[nH]n(-c2ccc(F)cc2)c(=O)c1C(C)=NCCc1cnc[nH]1 returned BasE inh -0.3 and LANA-nucl inh -1.2.
Screening Cc1cc(=O)[nH]c(SCC(=O)NCC2CCCCC2)c1C#N returned BasE inh 0.4.
Screening C=CCn1c(CCn2c3ccccc3c3ccccc32)n[nH]c1=S returned BasE inh -0.2.
O=C(Oc1ccc2ccccc2c1CN1CCOCC1)c1cc(=O)[nH]c2ccccc12 was read as BasE inh 0.7.
For NC(=O)NC(=O)c1nc2nonc2[nH]c1=O the results were BasE inh -3.7 and LANA-nucl inh -0.81.
`O=C(CSc1nnc(-c2cccs2)o1)c1ccc[nH]1` gave BasE inh 2.0.
Screening CCCCn1c(=S)[nH]c2sc3c(c2c1=O)CCCC3 returned BasE inh 3.8.

These rows are one share of the data. The share of hits here may be higher or lower than overall.
